KCNQ2 block: KCNQ2 potassium channel inhibitors, primary screen, cell-based, CHO-K1, FluxOR thallium flux, B-score (AID 2156) | 20 min; active compounds read low; only compounds with negative scores are shown here; some inactives read as strong as hits | B-score at 10 µM | hit rate 1.1% among 310,000;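 active = fluorescence ratio B-score at most minus 3 library SDs, with starting brightness B-score within 2 library SDs, cut at about -5.5 in these data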
Target sequence (O88943 whole entry, looked up): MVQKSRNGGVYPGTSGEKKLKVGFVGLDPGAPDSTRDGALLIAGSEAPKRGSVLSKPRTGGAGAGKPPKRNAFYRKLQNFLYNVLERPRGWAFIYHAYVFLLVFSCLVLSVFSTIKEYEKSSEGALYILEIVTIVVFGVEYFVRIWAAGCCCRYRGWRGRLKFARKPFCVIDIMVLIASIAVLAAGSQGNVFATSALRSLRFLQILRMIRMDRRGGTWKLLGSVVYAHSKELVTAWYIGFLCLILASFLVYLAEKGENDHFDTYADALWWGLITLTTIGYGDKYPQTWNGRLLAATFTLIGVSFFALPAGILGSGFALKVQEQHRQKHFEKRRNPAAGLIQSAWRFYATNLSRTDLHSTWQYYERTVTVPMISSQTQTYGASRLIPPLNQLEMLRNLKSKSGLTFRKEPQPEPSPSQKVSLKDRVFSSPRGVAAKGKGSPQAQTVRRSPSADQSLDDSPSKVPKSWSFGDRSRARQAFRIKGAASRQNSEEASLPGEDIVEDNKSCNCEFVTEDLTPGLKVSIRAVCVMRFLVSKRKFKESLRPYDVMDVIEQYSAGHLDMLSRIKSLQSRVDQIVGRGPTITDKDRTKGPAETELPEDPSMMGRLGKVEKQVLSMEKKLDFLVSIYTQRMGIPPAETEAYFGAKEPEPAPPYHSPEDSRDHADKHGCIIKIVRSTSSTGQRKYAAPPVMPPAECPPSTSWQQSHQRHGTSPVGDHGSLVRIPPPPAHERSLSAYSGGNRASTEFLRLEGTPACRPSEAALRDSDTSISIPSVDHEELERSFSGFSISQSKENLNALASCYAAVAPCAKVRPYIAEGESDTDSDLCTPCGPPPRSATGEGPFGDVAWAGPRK
KCNQ2 block baseline: recorded beside KCNQ2 block, whose call it bears; B-score; measured here: initial fluorescence intensity artifact check;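 brightness before thallium and not channel activity; 0 = typical well and far values either way flag optical interference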
* = called active by the depositor; i = inactive. Not all compounds are listed; count on the stated rates, not on these rows.

KCNQ2 block	KCNQ2 block baseline	structure
i	0.44	C#CCN1C(=O)C2C(C(=O)NC)C3C=CC2(O3)C1C(=O)NCc1ccc(OC)cc1 (stereo unspecified)
i	-0.59	O=C(NC1CCCC1)C(c1ccncc1)N(C(=O)c1ccco1)c1ccc(F)c(Cl)c1 (stereo unspecified)
i	0.62	Cc1cc(C)cc(NC(=S)NCc2ccc3c(c2)OCO3)c1
i	2.31	Cc1ccc(C(=O)NC(=C(Cl)Cl)S(=O)(=O)c2ccccc2)cc1
i	1.68	O=C(NCc1cccs1)C1CCCN(c2ncccn2)C1 (stereo unspecified)
i	0.5	COc1ccc(OC)c(CN2CCCC(C(=O)N3CCCCC3)C2)c1 (stereo unspecified)
i	-0.47	COC(=O)CN1C(=O)C(O)(CC(=O)c2ccc(C)o2)c2ccccc21 (stereo unspecified)
i	-2.44	O=c1c(Cl)c(NC2CC2)cnn1-c1ccccc1
i	-0.78	O=C(/C=C/c1cn(-c2ccccc2)nc1-c1cccnc1)N1CCCC1
i	1.21	Cc1ccc(Sc2ncnc(N)c2[N+](=O)[O-])cc1
i	-1.15	O=[N+]([O-])c1cccc(S(=O)(=O)NCCc2cn3ccccc3n2)c1
i	0.12	COc1cc(C2C(C#N)=C(N)N(c3ccc(F)cc3)C3=C2S(=O)(=O)CC3)ccc1O (stereo unspecified)
i	-0.28	COc1cccc(C(=O)Nc2c3c(nn2-c2cccc(C)c2C)CS(=O)(=O)C3)c1OC
i	1.7	COCc1cc(=O)[nH]c(/N=C(\N)Nc2ccc(C)cc2)n1
i	-0.06	CC(C)CC(C(=O)O)N1C(=O)C2C3c4ccccc4C(c4ccccc43)[C@@H]2C1=O (stereo partly specified)
i	0.54	CCOc1cc(/C=C2/SC(=Nc3ccccc3)N(Cc3cccnc3)C2=O)ccc1OCC#N
i	1.43	COc1cccc(OC)c1CN1CCCC(C(=O)c2ccccc2SC)C1 (stereo unspecified)
i	-0.63	CCc1ccc(/C=C/C(=O)c2c(C)cc(C)[nH]c2=O)cc1
i	-2.87	COC(=O)C1=CN(Cc2ccc(F)cc2)C=C(C(=O)OC)C1c1ccc(O)c(OC)c1
i	0.1	COc1ccc(NC(=O)c2oc3ccccc3c2NC(=O)C(C)(C)C)cc1
i	-4.3	COc1ccnc(N=CNOCc2ccc(Cl)cc2)c1C#N
i	-0.66	CC(COC(=O)c1ccccc1)(COC(=O)c1ccccc1)/[N+]([O-])=C/c1ccccc1
i	12.2	O=C1NC(=O)/C(=C\c2ccc(O)cc2O)S1
i	-0.5	COc1cc(C(=O)NCc2nnc(SCC(=O)NC3CCCC3)o2)cc(OC)c1OC
i	1.07	COc1ccc(/C=C/c2cc(=O)c3cc(Cl)ccc3o2)cc1

Fetched one by one from the entries so far, four records:
KCNQ2 block	KCNQ2 block baseline	structure
i	-1.15	O=[N+]([O-])c1cccc(S(=O)(=O)NCCc2cn3ccccc3n2)c1
i	1.7	COCc1cc(=O)[nH]c(/N=C(\N)Nc2ccc(C)cc2)n1
i	-2.87	COC(=O)C1=CN(Cc2ccc(F)cc2)C=C(C(=O)OC)C1c1ccc(O)c(OC)c1
i	-0.06	CC(C)CC(C(=O)O)N1C(=O)C2C3c4ccccc4C(c4ccccc43)[C@@H]2C1=O (stereo partly specified)

More results
KCNQ2 block	KCNQ2 block baseline	structure
i	-0.2	COc1cc(-c2nnn(CC#N)n2)ccc1OCc1ccccc1
i	-2.46	COc1ccc(-c2oc3ncnc(NCCCN(C)C)c3c2-c2ccc(OC)cc2)cc1
i	-0.97	COc1ccccc1NS(=O)(=O)c1ccc(-c2cc(C)no2)s1
i	-1.39	CC(=O)Nc1ccc(NC(=O)C2CCCCC2C(=O)O)cc1 (stereo unspecified)
i	0.32	O=C(CCC(=O)c1cccs1)OCc1nnc(-c2ccccc2)o1
i	-1.97	Cc1ccc(CNS(=O)(=O)c2cccc3nsnc23)cc1
i	0.67	COc1cccc(C2Nc3cccc4cccc(c34)N2)c1
i	0.23	CCO/N=C/C(=O)Nc1ccc(F)cc1F
i	1.18	C=CCCCCCCCC(=O)OC
i	-0.88	O=C(OCC(=O)N1CCCC1=O)c1nc(Cl)c(Cl)c(Cl)c1Cl
i	-0.06	Cc1ccc2c(c1)C1CN(C)CCC1N2C(=O)COc1ccccc1F (stereo unspecified)
i	-2.52	CN(C)S(=O)(=O)N(Cc1ccc(Br)cc1)c1ccccc1
i	0.34	COc1cc(/C=C/c2cccc[n+]2C)ccc1OCC(=O)Nc1cccc(Cl)c1
i	0.69	COCC(=O)N(Cc1cc2cc(C)ccc2[nH]c1=O)c1ccccc1
i	2.18	Cc1onc(-c2c(F)cccc2Cl)c1C(=O)NC1=NCCS1
i	-1.19	COC(=O)C1(C)NC(c2ccccc2F)C2C(=O)N(c3ccccc3)C(=O)C21 (stereo unspecified)
i	0.78	Cc1noc(C)c1S(=O)(=O)NCCN1CCN(c2ccccc2)CC1
i	0.07	COc1cccc(C(=O)CN2C3=NCCCN3c3ccccc32)c1
i	0.74	O=S1(=O)C[C@@H](N2CCOCC2)[C@H](N2CCOCC2)C1
i	0.82	C/C(=N\NC(=O)c1cccc(O)c1)c1cccc(NC(=O)c2ccc(F)cc2)c1
i	1.3	Cc1occc(=O)c1OCc1c(Cl)cccc1Cl
i	0.85	Cc1ccc(S(=O)(=O)Nc2c(C)n(C)n(-c3ccccc3)c2=O)cc1
i	-0.47	O=C(O)c1cc(-c2ccc(Br)s2)nc2ccccc12
i	-1.98	COc1cc(NC(=O)c2cccs2)c(OC)cc1NC(=O)CCC(=O)Nc1ccc(C)cc1
i	-0.79	Cc1cccc(C)c1NC(=O)CN(C)C(=O)Cn1c(=O)cnc2ccccc21

Some of these compounds in order of formula weight, largest number first.
KCNQ2 block	KCNQ2 block baseline	structure
i	-1.98	COc1cc(NC(=O)c2cccs2)c(OC)cc1NC(=O)CCC(=O)Nc1ccc(C)cc1
i	-0.97	COc1ccccc1NS(=O)(=O)c1ccc(-c2cc(C)no2)s1
i	2.18	Cc1onc(-c2c(F)cccc2Cl)c1C(=O)NC1=NCCS1
i	-0.47	O=C(O)c1cc(-c2ccc(Br)s2)nc2ccccc12
i	-1.39	CC(=O)Nc1ccc(NC(=O)C2CCCCC2C(=O)O)cc1 (stereo unspecified)
i	0.67	COc1cccc(C2Nc3cccc4cccc(c34)N2)c1

(next part)
KCNQ2 block	KCNQ2 block baseline	structure
i	0.43	Cn1cc(SCC(=O)N2CCOCC2)c2ccccc21
i	-1.13	CCC(C)(C)NC(=O)C(c1cccs1)N(C(=O)c1ccn[nH]1)c1cccc(OC)c1 (stereo unspecified)
i	-0.71	COc1ccc(C)c2sc(N(CCCN(C)C)C(=O)CS(=O)(=O)c3ccc(F)cc3)nc12
i	0.67	Cc1ccc(NCC(=O)Nc2cccc(S(=O)(=O)N(C)C)c2)cc1S(=O)(=O)N1CCCCCC1
i	-0.24	CCOC(=O)c1[nH]c(C)c(C(=O)NCc2cccnc2)c1C
i	-0.01	Cc1cccc2cncc(OCc3nnc(SC(F)F)n3C)c12
i	-0.78	Cc1nn(CCC(=O)Nc2cccc(C#N)c2)c(C)c1S(=O)(=O)N1CCCCC1
i	2.22	C/C(Cc1ccccc1)=N\NC(=O)CNC(=O)c1ccccc1F
i	-0.62	Cc1cccc(COCC(CC(C)C)N2CCN(C(=O)c3ccc(C(F)(F)F)cc3)CCC2=O)c1 (stereo unspecified)
i	0.07	CC(C)(C)C(=O)/C(C#N)=C/c1ccc(O)cc1
i	-1.91	O=C1C=C(NCC2CCCO2)CC(c2ccccc2)C1 (stereo unspecified)
i	-2.1	CCOc1ccc2[nH]c3c(=O)n(CCc4ccc(OC)cc4)cnc3c2c1
i	0.17	COC(=O)c1sccc1NC(=O)Nc1ccc(Cl)c(Cl)c1
i	1.42	CCN(CC)S(=O)(=O)c1ccc(Cl)c(NC(=O)c2cc(Cl)cc(Cl)c2)c1
i	4.46	CCC(CC)C(=O)c1c[nH]c(C(=O)NCCCN2CCOCC2)c1
i	-0.14	Cc1ccc(C(=O)n2nc(-c3ccccc3)nc2NCc2ccco2)cc1
i	0.07	C=CCn1c(SCC(=O)Nc2cc(C)c(Cl)cc2OC)nnc1-c1ccco1
i	-0.24	CCc1ccc(CCC(=O)Nc2sc(C)c(C)c2C(=O)OC)o1
i	-1.45	CCOc1ccccc1C(=O)NN1C(=O)C2CCCCC2C1=O (stereo unspecified)
i	0.67	O=C(Nc1cccnc1Cl)c1cc(-c2ccco2)on1
i	-0.56	C=CCNC(=S)NNC(=O)C(CCCC)CC(C)O (stereo unspecified)
i	1.51	CC1CCCCC1NS(=O)(=O)c1ccc(S(=O)(=O)N2CCN(CCC#N)CC2)cc1 (stereo unspecified)
i	-0.96	Cc1cccc(-n2nnc(C(=O)Nc3ccc(F)cc3)c2N)c1
i	1.31	O=C(NCCCN1CCCC1=O)NC12CC3CC(CC(C3)C1)C2
i	-0.03	COCCn1c(N)c(N(Cc2ccccc2)C(=O)CSCC(=O)Nc2ccc(OC)cc2)c(=O)[nH]c1=O
i	0.83	COc1ccc(C(=O)CSc2nnc(CNC(=O)c3ccc(OC)c(OC)c3)n2C)cc1
i	-0.63	COc1ccc(/C=C/c2n[nH]c(=O)c(C#N)c2C)cc1
i	-0.72	CCOC(=O)CNC(=O)CSc1ncnc2c1cnn2-c1ccccc1
i	-0.05	Oc1ccc(/C=N/n2c(-c3ccccc3)n[nH]c2=S)cc1
i	0.58	Oc1[nH]c2ccccc2c1C=Nc1ccc2c(c1)OCCO2
i	-0.1	COc1cc(OC)cc(C(=O)N2CCC(C(=O)Nc3ccc4c(c3)OCCO4)CC2)c1
i	-1.26	CCCN(C(=O)CSc1nc2c(cnn2-c2ccccc2)c(=O)[nH]1)C1CCS(=O)(=O)C1 (stereo unspecified)
i	3.7	O=C(N/N=C/c1cc2c(cc1Br)OCO2)c1c[nH]c2ccccc12
i	1.69	C=C1CCC[C@]2(C)C[C@H]3OC(=O)C(CN[C@@H](C)c4ccccc4)[C@H]3CC12 (stereo partly specified)
i	-0.17	NC(=O)C1CC(=O)N(c2ccc(OCc3ccc(Cl)cc3)cc2)C1 (stereo unspecified)
i	15.8	Cn1c(=O)c2[nH]c(-c3ccccc3Cl)c(O)c2n(C)c1=O
i	0.35	N#C/C(=C(/O)CN1CCCC1)c1nc(-c2ccccc2)cs1
i	-0.49	N#CCSc1nc(-c2ccccc2)nc2ccc(F)cc12
i	-0.06	Cc1cccc(NC(=O)CSc2nnc(-c3cc(C)n(-c4ccccc4)c3C)o2)c1C
i	0.25	CCOC(=O)c1c2n(c3ccc(O)cc13)CCC2
i	1.2	COc1ccc(O)c(/C=N/n2c(-c3ccco3)csc2=Nc2cccnc2)c1
i	-1.51	COc1ccc(N2CCN(C(=O)COCc3cc(-c4ccc5c(c4)OCO5)on3)CC2)cc1
i	-1.84	O=C(OCC1OC2C(Oc3nc(=O)ccn32)C1O)c1ccccc1 (stereo unspecified)
i	-0.72	O=C1OCCN1S(=O)(=O)Nc1ccccc1
i	-0.6	CC(=O)OCC1OC(OCc2cn(C[C@H]3CC[C@@H]([C@@H]4CC[C@H](Cn5cc(COC6OC(COC(C)=O)C(OC(C)=O)C(OC(C)=O)C6OC(C)=O)nn5)O4)O3)nn2)C(OC(C)=O)C(OC(C)=O)C1OC(C)=O (stereo partly specified)
i	1.42	O=C(NCc1ccc(Cl)cc1)C1CCC(CNc2c(N3CCOCC3)c(=O)c2=O)CC1 (stereo unspecified)
i	0.02	COc1ccccc1NC(=O)COc1ccc2ccccc2c1
i	-0.58	O=C(Nc1cccc(-c2nc3ccccc3s2)c1)c1ccc2c(c1)OCO2
i	-0.26	Cc1nnc(SCc2nnc(-c3cccs3)o2)s1
i	-1.07	Cn1c(CN2CCCCC2)nc2cc([N+](=O)[O-])ccc21

Next structures
KCNQ2 block	KCNQ2 block baseline	structure
i	0.68	CO/N=C(/COc1ccc(F)cc1)c1ccc(OC)cc1
i	-0.06	NS(=O)(=O)c1cccc(NC(=O)CCSc2ccc(Cl)cc2)c1
i	2.86	CCCCn1c(N)c(N(CCC(C)C)C(=O)c2c(C)noc2C)c(=O)[nH]c1=O
i	1.82	CCCC(=Nc1ccccc1)C1=C(O)C(C(=O)OC)C(C)(C)CC1=O (stereo unspecified)
i	1.29	O=C(Nc1ccc(N2CCOCC2)cc1)c1cc(-c2ccncc2)nc2ccccc12
i	-0.78	NNc1nc2ccc(F)cc2s1
i	0.02	COc1ccc(OC)c(-c2cc(C3CCN(c4ncccc4[N+](=O)[O-])CC3)[nH]n2)c1
i	0.75	O=C(NNc1ccccc1F)C1CCC1
i	0.1	COc1ccc(C(NC(=O)c2ccco2)c2ccc(OC)c(OC)c2)cc1 (stereo unspecified)
i	0.63	O=C(NCc1ccco1)[C@@H]1CCCN1C(=O)c1cccs1
i	-0.95	Cc1cc(C)c2[nH]c(=O)c(CN(Cc3cccs3)C(=S)NCc3ccco3)cc2c1
i	-2.34	CN1CCN(CC#CCn2c3ccccc3c3ccccc32)CC1
i	-0.31	COC(=O)c1ccccc1NC(=O)NCCc1ccccc1OC
i	1.48	COC(=O)CCC(=O)OC1(C)C(=O)C2=CN(CCCOC(C)C)C(c3ccc(OC)cc3)=CC2=C(Br)C1=O (stereo unspecified)
i	0.02	O=C(O)c1cn(Cc2ccccc2Cl)c2ccc(S(=O)(=O)N3CCOCC3)cc2c1=O
i	2.75	CCCCNc1nc2c(c(=O)n(C)c(=O)n2C)n1CCC
i	0.59	CCOC(=O)CC(Nc1nc(N2CCOCC2)nc(N2CCOCC2)n1)c1ccccc1Cl (stereo unspecified)

Bioassay records: PubChem, Johns Hopkins Ion Channel Center
